# Compound activity: PubChem BioAssay, several laboratories
# PrP UTR inh – suppresses PrP 5' UTR mRNA reporter expression; cell-based PrP 5' UTR mRNA reporter, plate reader; inhibition, % (no concentration beside the values); actives 0.35% (n = 340,000); AID 488862;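 active = every replicate at 50% or more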;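 note: 0 = median of the neutral control wells; tested in H4 reporter cells; numbers are from one replicate; inactives centre near -14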
# BJeLR lethal – BJeLR cell viability loss; AID 1554; BJeLR (HRASV12) viability, CellTiter-Glo ATP luminescence, 48 h; reference of the scale not given here; inhibition, % (concentration not given with the values); actives 0.17% (n = 300,000);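 active = replicate mean above 50%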;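 note: 50 nL library stock added to about 25 µL; numbers are from one replicate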
# Mtb hypoxia inh – inhibitors of hypoxia-regulated fluorescent reporter in Mycobacterium tuberculosis | M. tuberculosis hypoxia-regulated fluorescent reporter, fluorescence | fluorescence inhibition, % (no concentration beside the values) | actives 0.1% (n = 300,000) | AID 1159583;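 active = 35 to 45% if threefold the growth effect, above 45% if 1.5-fold the growth effect; inactive = the rest, general growth blockers included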;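 note: wells of about 50 µL received 100 nL stock; 0% = vehicle wells and 100% = reference inhibitor wells; whole bacteria with a GFP reporter of the hypoxia response; strong numbers were not always called active; many hits fall short of the cut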
# Sa RN4220 lethal – S. aureus RN4220 growth inhibition | OD600, 16 h | actives 0.33% (n = 330,000) | inhibition, % (concentration not given with the values);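 active = z-score of -3 or lower and OD600 up to 0.18 on both plates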;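 note: plate controls were untreated cells for no effect and reference antibiotic for full effect; stock transfer was 100 nL into about 80 µL; one replicate is shown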
# Sa ugtP lethal – kills S. aureus RN4220 lacking UgtP; actives 0.54% (n = 330,000); S. aureus RN4220 ugtP deletion, OD600 growth, 16 h; some inactives read as strong as hits; growth inhibition, % (concentration not given with the values);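 active = z-score under -3 and OD600 up to 0.15 on both plates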;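 note: plate controls were untreated wells for no effect and antibiotic for full effect; wells of about 80 µL received 100 nL stock; the first replicate is given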
# Bead autofluor – compound fluorescence in toxin protease inhibitor counterscreen; actives 3.1% (n = 360,000); fluorescence intensity (no concentration beside the values); compound autofluorescence counterscreen, microsphere flow cytometry; hits give high values;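 active = at least 3 SD above the mean of all compounds, about 16000 in these data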;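 note: 100 nL of 1 mM stock went into each well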
# Mtb hypoxia inh growth – further read-out of Mtb hypoxia inh, marked with its call; growth inhibition, %; measured here: M. tuberculosis growth (absorbance);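 0% = vehicle and 100% = reference antibiotic; read after six days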
# * hit, by the source's call; · = not tested or not shown; & = joins results of further samples. Hits appear at their usual frequency. Share with any hit: about 4%.
SMILES,PrP UTR inh,BJeLR lethal,Mtb hypoxia inh,Mtb hypoxia inh growth,Sa RN4220 lethal,Sa ugtP lethal,Bead autofluor
CN1CCc2c(sc(NC(=O)Cc3ccccc3)c2C(N)=O)C1,-24,-10,14,3,-5.6,-2,3997
Cc1noc(C)c1C(=O)NCCc1c(C)[nH]c2ccccc12,-6,12,-3,1,-0.5,-5,6125
COC(=O)c1ccc(C(=O)OC)c(NC(=S)N2CCCC2)c1,-14,11,1,2,3.6,3,4000
CC(C)(C)NC(=O)CSc1nc2ccc(NC(=O)CSc3nnnn3Cc3ccccc3)cc2s1,-6,10,8,13,-4.7,-3,3772
CCc1cc2c(=O)[nH]c(-c3ccccn3)nc2s1,-24,34,9,9,14,-20,9102
Oc1c(C(c2cccc(F)c2)N2CCN(Cc3ccccc3)CC2)sc2ncnn12 (centres undefined),-21,-3,4,10,-8.7,-3,6658
CCCCNC(=O)CN1C(=O)NC2(CCCc3ccccc32)C1=O (centres undefined),-4,-12,5,2,5.0,4,14370
CC1CCC(NC(=O)C2CCN(C(=O)Nc3ccccc3)CC2)CC1 (centres undefined),-17,·,1,-3,2.2,1,6286
Cc1ccccc1NC(=O)N1CCN(c2ncccn2)CC1,-25,-11,5,-3,4.2,3,2444
Cn1c(Cn2nnc3ccccc32)nnc1SCC(=O)c1ccc(F)cc1,-5,7,-8,1,0.9,3,8970
COc1c(Cl)cnn(-c2ccc(Cl)c(Cl)c2)c1=O,-16,1,-1,-3,4.0,0,4606
COc1ccc(NC(=O)CNC(=O)Cn2c(C)cc3ccccc3c2=O)cc1OC,-13,0,11,3,3.6,6,4061
Cc1ccccc1-c1noc(N)c1C#N,-6,4,8,7,0.7,0,23456*
COc1ccc2c(C)c(CC(=O)N3C[C@H]4C[C@@H](C3)c3cccc(=O)n3C4)c(=O)oc2c1,-19,8,·,·,2.5,-7,5595
Cc1cccc(N2CCN(c3ccc(NC(=O)/C=C\C(=O)O)cc3)CC2)c1,-21,-2,-7,4,-4.0,-8,4335
COC(=O)c1nc2ccc(C)cn2c1F,-25,10,7,-5,3.9,1,4198
Cc1ccc(NC(=S)NCc2ccccn2)cc1,-30,-10,·,·,6.9,7,2791
N#C/C(=C(/O)c1cc2ccccc2o1)c1nc2ccccc2s1,-33,7,1,-1,77,74,4551
COCc1nc2sc3c(c2c(=O)[nH]1)CCCC3,-22,14,1,-1,5.4,9,2696
Cc1cc(NC(=O)CSc2n[nH]c(-c3cccs3)n2)no1,-18,-12,0,6,4.9,-2,11395
CC(C)N(C(=O)Cc1ccccc1[N+](=O)[O-])C(C)C,-4,5,1,7,10,28,4436
O=C(NCCCNC1CCCCC1)c1ccc(/C=N/O)nc1,-22,6,·,·,·,·,2602
CCOc1ccc(S(=O)(=O)N2CCC(C(=O)NCc3ccncc3)CC2)cc1,-13,2,2,-2,0.6,1,4990
CC(C)c1ccc(OCc2ccc(C(=O)N(C)C)o2)cc1,-46,-5,-4,-2,7.5,0,3557

# Another view of part of the listing above:
# Every second line gives: PrP UTR inh, BJeLR lethal, Mtb hypoxia inh, Mtb hypoxia inh growth, Sa RN4220 lethal, Sa ugtP lethal, Bead autofluor
- Cc1ccccc1NC(=O)N1CCN(c2ncccn2)CC1
  -25, -11, 5, -3, 4.2, 3, 2444
- Cn1c(Cn2nnc3ccccc32)nnc1SCC(=O)c1ccc(F)cc1
  -5, 7, -8, 1, 0.9, 3, 8970
- COc1c(Cl)cnn(-c2ccc(Cl)c(Cl)c2)c1=O
  -16, 1, -1, -3, 4.0, 0, 4606
- COc1ccc(NC(=O)CNC(=O)Cn2c(C)cc3ccccc3c2=O)cc1OC
  -13, 0, 11, 3, 3.6, 6, 4061
- Cc1ccccc1-c1noc(N)c1C#N
  -6, 4, 8, 7, 0.7, 0, 23456*
- COc1ccc2c(C)c(CC(=O)N3C[C@H]4C[C@@H](C3)c3cccc(=O)n3C4)c(=O)oc2c1
  -19, 8, ·, ·, 2.5, -7, 5595
- Cc1cccc(N2CCN(c3ccc(NC(=O)/C=C\C(=O)O)cc3)CC2)c1
  -21, -2, -7, 4, -4.0, -8, 4335
- COC(=O)c1nc2ccc(C)cn2c1F
  -25, 10, 7, -5, 3.9, 1, 4198
- Cc1ccc(NC(=S)NCc2ccccn2)cc1
  -30, -10, ·, ·, 6.9, 7, 2791
- N#C/C(=C(/O)c1cc2ccccc2o1)c1nc2ccccc2s1
  -33, 7, 1, -1, 77, 74, 4551
- COCc1nc2sc3c(c2c(=O)[nH]1)CCCC3
  -22, 14, 1, -1, 5.4, 9, 2696
- Cc1cc(NC(=O)CSc2n[nH]c(-c3cccs3)n2)no1
  -18, -12, 0, 6, 4.9, -2, 11395
- CC(C)N(C(=O)Cc1ccccc1[N+](=O)[O-])C(C)C
  -4, 5, 1, 7, 10, 28, 4436

# (listing goes on)
SMILES,PrP UTR inh,BJeLR lethal,Mtb hypoxia inh,Mtb hypoxia inh growth,Sa RN4220 lethal,Sa ugtP lethal,Bead autofluor
CCCCc1nnc(NC(=O)CSc2nc(C)cc(=O)[nH]2)s1,-8,-9,5,0,2.7,-1,22153*
COCCNC(=O)Cn1ncc2ccsc2c1=O,-10,-1,12,12,-9.6,1,4758
CCC(c1n[nH]c(=S)n1-c1ccccc1)N(C)C (centres undefined),-10,-6,-5,-4,1.8,2,2399
Cc1ccccc1C(=O)Nc1c(C(=O)N2CCCC2)cnn1-c1ccccc1,-28,-3,1,-6,-5.4,-2,10190
O=C(Nc1ccccc1)[C@@H]1CC=C[C@@H]2CCN(C3CCCCC3)C(=O)[C@@H]21,-9,7,·,·,·,·,3538
CCOc1ccc(N(CC(=O)Nc2ccc(C)cc2)S(=O)(=O)c2c(C)[nH]c(=O)[nH]c2=O)cc1,·,-5,-5,-6,2.0,1,4450
CCOC(=O)c1c(C)sc2c1N(C(=O)CCl)c1cc(Cl)ccc1S2,-8,0,·,·,64,93*,2183
COc1ccc(-c2nc(CN3CCN(Cc4ccccc4)CC3)c(C)o2)cc1,-23,1,0,-3,0.9,4,4560
Cc1cccc(Cn2c(=O)c3c(nc4n3CCCN4Cc3ccccc3)n(C)c2=O)c1,2,1,21,18,-5.0,1,4849
O=C(Nc1ccncc1)C1CCN(S(=O)(=O)c2ccccc2C(F)(F)F)CC1,-6,11,6,-5,0.3,-2,5997
Cc1ccc(C)n1-c1ccc(C(=O)N/N=C/c2ccncc2)cc1,-8,-3,·,·,·,·,5204
CCOC(=O)N1CCN(C(=O)c2csc3c2CCCCC3)CC1,-16,1,22,18,6.9,8,5728
Nc1nn2c(-c3ccccc3)cc(=O)[nH]c2c1N=Nc1ccc(O)cc1,-13,-2,9,6,15,39,2321
CC(=O)NCCc1csc(-c2ccccc2)n1,-23,-10,12,3,2.5,3,12900
CC(C)c1nnc(NC(=O)CCC(=O)NCc2ccccc2Cl)s1,-23,3,6,8,4.1,8,4905
CCOc1nc(C#N)nc(N2CCCCC2)n1,-5,7,15,8,4.1,-1,4479
CC(C(=O)NC1C(=O)N2C(C(=O)O)=C(CSc3nnnn3C)CSC12)n1cc(Cl)cn1 (centres undefined),-18,-14,·,·,100*,100*,4147
C=CCN(Cc1ccc(Cl)s1)C(=O)CNC(=O)CNC(=O)c1ccc(Cl)cc1Cl,-25,·,3,6,1.5,2,3594
CCOC(=O)C1CCCN(C(=O)CCCn2nnnc2CN2CCC(C)CC2)C1 (centres undefined),-9,7,-2,-4,-2.6,1,4247
Cn1cc([C@@H]2C[C@H]3CN(Cc4cccc(Cl)c4)C(=O)[C@]34CCCN24)c2ccccc21,-8,3,-3,-4,-4.3,-2,17603*
CCC(C)C(NC(=O)C(CC(C)C)NC(=O)C(CO)NC(=O)C1CCC(=O)N1)C(=O)OC (centres undefined),-11,3,-10,-10,-5.1,1,2554
CNC(=O)c1ccccc1S(=O)(=O)c1ccccc1C#N,-18,14,·,·,-3.9,-5,4644
CC1CCN(S(=O)(=O)c2cc(Br)cc(C(=O)NC3=NCCS3)c2)CC1,-5,6,2,0,5.7,-4,24164*
COc1ccc(C(=O)NC2CC2)cc1OC1CCN(Cc2ccc(SC)cc2)CC1,-22,7,1,0,1.3,7,·
CCOC(=O)C1=NNC(C(=O)c2ccc(Cl)cc2)C1c1ccc(OC)cc1 (centres undefined),-5,-4,3,-5,4.5,24,2161
CC1CC(C)CN(CCCNC(=O)c2ccc3c(c2)N(Cc2ccccc2)C(=O)c2ccccc2S3=O)C1 (centres undefined),-4,7,-10,-3,4.8,8,4665
COc1ccccc1NC(=O)Nc1ccc(C)cn1,-16,0,2,1,7.2,-4,3750
Cc1ccc(S(=O)(=O)N/N=C2/CCCCC2C2CCCCC2)cc1[N+](=O)[O-] (centres undefined),-7,-1,·,·,·,·,1931
NC(=O)NC(CC(=O)NCCCc1ccccc1)c1ccc(Cl)cc1 (centres undefined),-18,-4,-11,-4,-1.4,-10,4565
O=C1NC2(CCCCC2)C(=O)N1c1ccc(Cl)cc1,-12,-9,-5,-2,4.6,2,3536
CON(C)C(=O)CC1CC(OC(=O)c2ccc([N+](=O)[O-])cc2)CN1C(=O)OC(C)(C)C (centres undefined),·,·,-2,4,3.3,0,·
COc1ccccc1OCC(O)CN1CCN(CC(=O)Nc2c(C)cccc2C)CC1 (centres undefined),3&12,12,7&-3,0&2,3.0&4.5,3&0,5897&4724
COC(=O)c1sccc1Oc1c(Cl)cccc1[N+](=O)[O-],-30,-4,-2,-2,3.4,6,4084
CCOc1ccc2nc(NC(=O)CC3Oc4ccccc4NC3=O)sc2c1 (centres undefined),-23,-30,3,4,7.1,9,4965
Oc1ccccc1C=NN1CCN(c2ccccn2)CC1,·,·,9,7,7.0,3,·
CC(=NOCc1ccc(C#N)cc1)c1cc2ccccc2o1,·,·,2,1,3.2,7,·
COC(=O)c1sccc1NS(=O)(=O)c1ccccc1,-3,2,12,6,3.1,5,5046
O=C(CSc1nnc(-c2ccc(Cl)cc2)n1Cc1ccco1)Nc1ccc2c(c1)OCCO2,-16,-1,-1,-1,-6.9,11,7233
COc1ccc(-c2nnn(CC(=O)N(Cc3cccs3)C(C)C(=O)NC3CCCC3)n2)cc1OC (centres undefined),-19,-5,-3,2,-4.7,-6,10886
O=C(NC1CCN(C(=O)N2c3ccccc3Sc3ccccc32)CC1)c1ccccc1Cl,-10,9,-7,-15,-9.8,-21,9286
CCCCCCCCc1nc(SC(C)C(=O)O)n[nH]1 (centres undefined),-20,1,-6,5,-0.2,2,2133
CCNC(=S)N1CCN(Cc2ccc3c(c2)OCO3)CC1,-31,-6,16,8,8.4,4,4417
O=C(C1=C[C@@H](C2CC2)C[C@@H](OCCCCO)O1)N1CCN(Cc2ccc3c(c2)OCO3)CC1,-3,10,·,·,·,·,3736
C=C(C)C1CCC(C)=C1CC(C)(C)C=Nn1cnnc1 (centres undefined),·,·,-5,-3,0.8,-11,·
Cc1cc(O)ccc1N=Cc1c(C(F)(F)F)[nH][nH]c1=O,-19,-2,18,10,5.4,4,2162
CN(CC(O)Cn1cnc2c1c(=O)n(C)c(=O)n2C)c1ccccc1 (centres undefined),-15,-1,8,5,3.0,9,4373
CCOc1ccc(C2C(C#N)=C(N)Oc3cc(C)n(CCN(C)C)c(=O)c32)cc1OCC (centres undefined),-2,-1,4,5,2.2,6,16485*
Nc1nc(N2CCN(c3ccc(F)cc3)CC2)n[nH]1,-35,-3,10,-5,-0.1,2,4465
Cc1cc(NC(=O)CN2CCN(c3cccc(Cl)c3)CC2)no1,-23,-7,-8,-16,2.3,1,4059
CC(C)OC(=O)C(C#N)c1nc2ccccc2nc1N1CCCC1 (centres undefined),-10,-4,·,·,10,9,3598
CC(Sc1nc2ccccc2c(=O)[nH]1)C(=O)O (centres undefined),-34,3,3,-1,2.2,-3,9831
CCN(C(=O)c1cc(Cl)ccc1Cl)C1CCS(=O)(=O)C1 (centres undefined),-18,-7,12,8,6.1,1,5206
